FGF22 binding: FGF22 (human) thermal shift binding | Q9HCT0 | recombinant FGF22 thermal shift, SYPRO orange fluorescence; percent of sucrose octasulfate shift, DMSO zero | calls only at 9.99 µM | hit rate 1.5% among 340,000 | AID 651658;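 active means melting point raised past a set limit in the mean and every replicate; three in four hits are not shown here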
Target sequence (Q9HCT0 whole entry, looked up): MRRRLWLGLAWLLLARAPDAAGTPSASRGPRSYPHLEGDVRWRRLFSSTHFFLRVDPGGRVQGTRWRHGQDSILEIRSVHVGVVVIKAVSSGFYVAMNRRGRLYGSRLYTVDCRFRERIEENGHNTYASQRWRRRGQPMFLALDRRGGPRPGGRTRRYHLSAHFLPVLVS
UCH37 DUB inh: human UCH37 deubiquitinating enzyme inhibition | purified proteasome/UCH37, Ub-AMC cleavage fluorescence | AID 588478 | inhibition, % (no concentration beside the values) | Q9Y5K5 | hit rate 0.33% among 330,000;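 active means mean of two replicates above 20%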;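 further: 0% = compound-free wells with enzyme and 100% = wells lacking proteasome; stock transfer was 100 nL into about 20 µL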
Target sequence (Q9Y5K5 whole entry, looked up): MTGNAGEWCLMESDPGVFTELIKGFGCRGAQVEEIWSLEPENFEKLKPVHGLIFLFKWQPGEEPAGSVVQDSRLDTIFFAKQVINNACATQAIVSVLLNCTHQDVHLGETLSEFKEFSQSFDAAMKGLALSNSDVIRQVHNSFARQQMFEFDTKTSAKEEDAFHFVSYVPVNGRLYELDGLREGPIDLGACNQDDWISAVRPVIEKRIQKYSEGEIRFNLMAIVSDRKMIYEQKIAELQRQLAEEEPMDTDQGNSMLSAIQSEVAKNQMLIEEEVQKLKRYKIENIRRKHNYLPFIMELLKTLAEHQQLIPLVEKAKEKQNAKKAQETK
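Test system – human UCH37 enzyme supplied as purified proteasome complex · Incubation – 30 min preincubation with enzyme, 25 min cleavage at room temperature · Detection – AMC fluorescence from Ub-AMC cleavage, excitation 355 nm, emission 460 nm · Benchmarks – no-proteasome wells (full inhibition) and compound-free wells (no inhibition)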
MLL AF4-AF9 inh: inhibitors of human MLL-AF4/AF9 interaction | P42568 | AlphaScreen, biotin-AF4 peptide binding to FLAG-AF9 | inhibition, % at 10 µM | hit rate 0.47% among 350,000 | AID 651704;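 active means every replicate reaching a set inhibition limit, whatever the replicate mean, cut at about 25% in these data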;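 further: 0% = plate neutral control median and 100% = total signal loss; the record names both 10 and 1 µM as test concentration; the first replicate is given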
Target sequence (P42568 whole entry, looked up): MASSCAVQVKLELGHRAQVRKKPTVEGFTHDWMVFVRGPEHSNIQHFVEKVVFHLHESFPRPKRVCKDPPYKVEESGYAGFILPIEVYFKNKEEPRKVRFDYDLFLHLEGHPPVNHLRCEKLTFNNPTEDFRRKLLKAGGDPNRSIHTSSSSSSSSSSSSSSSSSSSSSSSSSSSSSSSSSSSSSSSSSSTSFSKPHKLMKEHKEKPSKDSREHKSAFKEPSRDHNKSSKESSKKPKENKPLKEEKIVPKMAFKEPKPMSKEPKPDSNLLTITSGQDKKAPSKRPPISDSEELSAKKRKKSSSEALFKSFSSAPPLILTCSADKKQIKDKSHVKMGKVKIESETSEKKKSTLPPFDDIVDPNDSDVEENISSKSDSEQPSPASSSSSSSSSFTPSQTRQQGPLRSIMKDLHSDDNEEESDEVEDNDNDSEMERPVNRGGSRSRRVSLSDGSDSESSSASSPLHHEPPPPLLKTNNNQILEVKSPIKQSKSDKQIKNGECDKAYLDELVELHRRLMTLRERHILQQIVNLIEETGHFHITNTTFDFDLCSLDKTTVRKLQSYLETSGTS
Ecoli rRNA inh: inhibits bacterial ribosomal RNA function over humanized ribosomes; E. coli WT GFP vs humanized-ribosome RFP mutants, fluorescence, 24 h; stronger effect = lower value; DMSO median 0, no signal -100; GFP signal change (wild-type ribosome), % (no concentration beside the values); hit rate 1.6% among 350,000;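 active means significant combined selectivity score with lowered wild-type GFP, culture density cut under 30%, mutant RFP and density less affected; inactive means any of these conditions unmet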; further: one replicate is shown; some compounds called inactive have numbers as strong as hits
Beta cell apopt: blocks beta cell apoptosis | protection from apoptosis, % (no concentration beside the values) | AID 435005 | INS-1E cytokine-induced death, ATP luminescence, 48 h; percent of positive-control rescue, neutral wells zero | hit rate 0.8% among 300,000;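 active means all replicates at 75% or more, or half of them and the mean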;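 further: 0% = cytokine-treated negative control wells and 100% = positive control rescue; higher means more ATP so stronger rescue from cytokine killing; wells of about 40 µL received 100 nL stock; the first replicate is given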
Ecoli growth: blocks Escherichia coli growth; OD600, 23 h; stronger effect = lower value; OD600 absorbance (test concentration not listed); hit rate 0.21% among 330,000; AID 1053175;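 active means OD600 absorbance below the run mean of sample wells minus 3.6 SD, in any replicate, cut at about 0.56 in these data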;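 further: stock transfer was 300 nL into about 60 µL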
A1 inh: inhibitors of the anti-apoptotic protein A1, read as caspase activation; MEF A1-2A-BIM cells, Caspase-Glo 3/7 luminescence, 3 h; percent of clofoctol response, vehicle zero; caspase activation, % (test concentration not listed); hit rate 0.066% among 330,000; AID 2462;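 active means over half of replicate activation scores above 10%, or exactly half above 10 with the replicate mean above 10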;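 further: wells of about 30 µL received 50 nL stock; many hits fall short of the cut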
T cruzi inh: T. cruzi replication inhibition | T. cruzi beta-gal in NIH3T3, luminescence, 90 h | inhibition, % (no concentration beside the values) | hit rate 1.4% among 300,000 | AID 1885;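 active means mean inhibition across valid replicates above about 55%, limit read from the data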;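 further: signal also drops with host cell toxicity which is not excluded here; 0% = plate median of DMSO wells and 100% = zero luminescence signal; higher percent means less beta-gal luminescence so fewer parasites; stock transfer was 50 nL into about 50 µL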
Ecoli rRNA inh OD600: also measured in Ecoli rRNA inh; calls as there; OD600 change, %; measured here: OD600 growth;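 optical density of the mix in the first replicate; 0 = DMSO median and -100 = no signal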
Ecoli rRNA inh RFP: second read-out of Ecoli rRNA inh, no call of its own (marks repeat the call); RFP signal change, %; measured here: RFP humanized mutant strains;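 first replicate; 0 = DMSO median and -100 = no signal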
Active calls of the source: *; i = inactive; . = not tested or not shown. Only part of the results is shown. The share of hits here may be higher or lower than overall.

SMILES	FGF22 binding	UCH37 DUB inh	MLL AF4-AF9 inh	Ecoli rRNA inh	Ecoli rRNA inh OD600	Ecoli rRNA inh RFP	Beta cell apopt	Ecoli growth	A1 inh	T cruzi inh
Cc1nn(C)c(=O)n1N(C)c1ncc(C(F)(F)F)cc1Cl	i	-2.3	-5.4	7	4	-0.2	-5	0.67	1.0	-7
Cc1nc(NCCc2ccccc2)c2oc3ccccc3c2n1	.	0.4	.	.	.	.	19	0.65	-0.1	-14
CCOC(=O)c1sc(N)nc1C(C)(C)C	.	4.1	.	.	.	.	-5	0.71	-0.7	-2
O=C(NC1CC2CCC(C1)N2Cc1ccccc1)c1ccccc1Br (centres undefined)	i	1.6	0.5	18	13	-4.0	-5	0.71	-0.2	15
CCOc1ccc(S(=O)(=O)N(CC)CC(=O)NCc2ccncc2)cc1C	i	-0.3	2.0	6	7	3.4	-6	0.67	0.7	11
O=c1[nH]c2c(s1)C(c1ccccc1)C1C3CCC(C3)C1S2 (centres undefined)	.	2.1	.	.	.	.	2	0.75	0.3	-4
O=C(NCc1ccccc1F)C1CCN(C(=O)c2sccc2-n2cccc2)CC1	i	2.8	-1.2	-2	6	0.6	-11	0.7	-0.1	8
Cc1cc(=O)oc2cc(OCC(=O)NCc3ccco3)ccc12	.	-6.1	.	.	.	.	-3	0.67	-0.6	6
CCOC(=O)CSc1nc2sc3c(c2c(=O)n1C1CCCCC1)CCN(C)C3	.	-81	.	.	.	.	0	0.69	1.8	57*
C=CCNC(=O)c1cnc2n(c1=O)CCS2	i	3.5	5.3	3	1	-10	-8	0.72	-0.2	-6
COc1ccc(N2CC(C(=O)N3CCN(C(=O)c4ccco4)CC3)CC2=O)cc1 (centres undefined)	.	0.1	2.2	9	5	-1.4	-5	0.66	-0.4	-4
COc1cc(OC)c(-c2cc(C(=O)O)ccc2OC)c(OC)c1	i	4.0	-4.6	.	.	.	-8	0.69	1.2	-16
O=C(O)CN1C(=O)/C(=C/c2ccc(N3CCCCC3)o2)SC1=S	i	8.8	0.0	14	7	-5.0	-1	0.67	0.7	-4
CCOc1ccc(CNC(=O)c2cc3oc4ccccc4c3n2C)cc1	.	-5.0	.	.	.	.	-2	0.69	0.8	-12
Cc1cc(OC(=O)c2ccccc2Cl)c([N+](=O)[O-])c(=O)[nH]1	i	6.4	-15	9	8	-0.8	0	0.71	1.0	-12
O=C(c1cccc(F)c1)N1CCc2ccccc2C1	.	7.2	.	.	.	.	4	0.7	0.9	-5
Cc1ccc(NCc2ccc(O)c3ncccc23)cc1C	i	6.9	0.4	5	8	1.0	4	0.73	0.2	19
Cc1ccccc1-c1nnc(SC(C)C(=O)NC2CCCC2)o1 (centres undefined)	i	-1.0	0.4	-2	-6	-2.6	0	0.71	1.1	.
O=C(CCN1C(=O)/C(=C/c2ccc(F)cc2)SC1=S)NNC(=O)c1cccnc1	.	6.5	.	.	.	.	3	0.66	-1.3	-10
COc1cccc(CNC(=O)C2CCCN(c3nn4c(=O)cc(C)nc4s3)C2)c1OC (centres undefined)	.	2.8	.	.	.	.	-1	0.69	0.1	-2
CCCCCCC(=O)N(O)C1CC(=O)N(c2ccc(Br)cc2)C1=O (centres undefined)	.	2.6	.	.	.	.	-17	0.68	-0.3	6
COc1ccccc1C1CCN(C(=O)C2CCCCC2)CC1	i	1.0	3.5	0	-6	-2.2	.	0.62	0.2	4
COCCCNC(=O)CCn1c(=O)c2ccccc2n(CC(=O)Nc2ccccc2C)c1=O	.	3.5	.	.	.	.	5	0.71	0.5	-13
C=CCc1ccccc1OCCNCc1ccccc1	i	2.7	1.0	-8	-9	-0.3	.	0.64	0.9	9
C#CCn1c(S(=O)(=O)Cc2ccc(OC)cc2)nc(-c2ccccc2)c1-c1ccccc1	.	-2.8	.	.	.	.	6	0.79	0.5	18

Continued; it opens with the three that closed the last part.
SMILES	FGF22 binding	UCH37 DUB inh	MLL AF4-AF9 inh	Ecoli rRNA inh	Ecoli rRNA inh OD600	Ecoli rRNA inh RFP	Beta cell apopt	Ecoli growth	A1 inh	T cruzi inh
COCCCNC(=O)CCn1c(=O)c2ccccc2n(CC(=O)Nc2ccccc2C)c1=O	.	3.5	.	.	.	.	5	0.71	0.5	-13
C=CCc1ccccc1OCCNCc1ccccc1	i	2.7	1.0	-8	-9	-0.3	.	0.64	0.9	9
C#CCn1c(S(=O)(=O)Cc2ccc(OC)cc2)nc(-c2ccccc2)c1-c1ccccc1	.	-2.8	.	.	.	.	6	0.79	0.5	18
CC1(C)OC2OC3C(CNCCO)OC(c4ccccc4)OC3C2O1 (centres undefined)	i	0.8	-5.3	4	7	-4.0	.	0.7	.	.
Cc1nc2c(-c3ccccc3)c(C)[nH]n2c(=O)c1Cc1ccccc1	i	1.3	0.2	-4	-3	-1.9	26	0.71	0.2	46
COc1ccc(N(CC(=O)NC2CCCCC2)C(=O)CNC(=O)c2cccs2)cc1	i	-1.1	-12	-1	-9	0.4	2	0.68	0.6	5
COc1ccc(CCn2c(=N)c(C(=O)NC3CCCC3)cc3c(=O)n4ccccc4nc32)cc1	i	-9.0	1.2	5	3	-4.6	-1	0.65	-0.7	2
Cc1ccc(NC2CC(=O)N(Cc3ccccc3)C2=O)cc1 (centres undefined)	.	-1.3	.	.	.	.	-7	0.68	1.1	-10
COc1ccc(NC(=O)C2Cc3cc(S(=O)(=O)N4CCCCC4)ccc3N2C(C)=O)cc1Cl (centres undefined)	i	-0.1	2.5	1	2	-0.3	.	0.66	-1.1	14
CCOC(=O)c1c(C)[nH]c(C(=O)C(C)OC(=O)c2oc3ccccc3c2COC)c1C (centres undefined)	.	2.3	.	.	.	.	-5	0.75	-0.2	-2
CN(C)S(=O)(=O)c1cccc(-c2nnc(SCC(=O)NCCCCCC(=O)O)n2-c2ccc(F)cc2)c1	i	3.0	-1.2	16	15	0.8	-4	0.71	0.4	-6
CC(=O)c1ccc(OC(C)C(=O)NC2CCCCC2C)cc1 (centres undefined)	i	3.4	0.6	9	1	1.0	-1	0.7	1.3	.
CN(Cc1nccn1C)C(=O)C1CCC(=O)N(Cc2cccc(C(F)(F)F)c2)C1 (centres undefined)	i	2.5	-2.0	15	-2	1.0	-4	0.64	0.0	-15
COc1ccccc1-c1sc2cc3c(cc2c1C#CC1(O)CCCCC1)OCO3	i	.	7.3	6	10	-6.7	-1	.	-0.7	.
CCOC(=O)c1cc2c(ccn2C)n1Cc1ccc(C#N)cc1	i	0.2	5.7	-14	4	-0.7	0	0.71	0.6	10
COc1ccc(-n2c(-c3ccc(Br)cc3)c[n+]3c2CCCCC3)cc1	i	4.4	-0.9	-60	-78	-24	111*	0.68	0.1	66*
O=C(O)c1cc(N/N=C/c2ccc3c(c2)OCO3)ccc1Cl	i	.	-1.9	.	.	.	-4	.	-6.8	-15
CCOc1ccc2nc(NC(=O)CS(=O)(=O)c3ccccc3)sc2c1	.	1.9	.	.	.	.	-5	0.69	-0.4	-2
CCOc1ncccc1C(=O)N1CCN(c2cc(Cl)ccc2C)CC1	i	1.0	1.4	-45	-74	-3.5	6	0.68	0.0	-38
CCCNC(=O)[C@H]1N2C(=O)c3c(ccc(OC)c3OC)C2SC1(C)C (some centres undefined)	i	-8.7	-1.5	15	9	0.2	-4	0.68	1.0	-4
O=C(Cc1ccc(Cl)cc1)Nc1ccc(Cl)cn1	i	2.1	-3.3	0	4	-6.4	0	0.72	0.2	-2
CNC(=O)C(=O)N1CCC2(CC1)OCCN2S(=O)(=O)c1ccc(C)cc1	i	5.5	-17	2	6	-1.7	-3	0.66	1.4	-6
O=C(CN1CCN(c2ccccn2)CC1)Nc1ccc(F)c(F)c1	i	0.6	-1.8	3	-1	-2.2	-3	0.67	0.0	1
COc1ccc2cc(C(=O)NCc3ccccc3)c(=O)oc2c1	i	-219	-3.1	4	3	6.6	-11	0.7	0.9	5
CCc1nccn1S(=O)(=O)c1ccc(OC)c(OC)c1	i	2.3	-4.3	6	15	2.1	.	0.74	0.0	-1
Cc1ccc(CNC(=O)COc2ccc3c(c2)CCC3)cc1	i	4.7	-3.0	-12	-11	-11	-9	0.66	0.9	-11
O=C1NC(CCO)C(=O)NC1CCO (centres undefined)	i	3.8	0.7	12	11	0.7	.	0.71	.	.
COc1ccc(NC(=O)COC(=O)c2ccc(Br)o2)cc1OC	.	-1.3	.	.	.	.	-4	0.71	0.5	-4

Next part (2 carried over from the part before).
SMILES	FGF22 binding	UCH37 DUB inh	MLL AF4-AF9 inh	Ecoli rRNA inh	Ecoli rRNA inh OD600	Ecoli rRNA inh RFP	Beta cell apopt	Ecoli growth	A1 inh	T cruzi inh
O=C1NC(CCO)C(=O)NC1CCO (centres undefined)	i	3.8	0.7	12	11	0.7	.	0.71	.	.
COc1ccc(NC(=O)COC(=O)c2ccc(Br)o2)cc1OC	.	-1.3	.	.	.	.	-4	0.71	0.5	-4
C#CCOc1c(/C=C\c2nc(O)c([N+](=O)[O-])c(=O)[nH]2)cc(Br)cc1OC	i	13	-4.2	-9	-1	-9.3	-10	0.65	0.6	12
O=C(Nc1nccs1)C1CCN(S(=O)(=O)c2ccccc2)CC1	i	1.3	-1.1	-5	5	-2.2	-2	0.72	0.9	5
O=C(CSc1ccc2nnc(-c3cccnc3)n2n1)Nc1ccc(F)cc1	i	2.7	-2.7	3	7	1.5	5	0.64	0.0	0
CC(=O)c1ccc(OC(=O)Cc2cccc3ccccc23)cc1	i	1.3	2.0	-13	-18	-0.7	-4	0.67	0.9	-5
CCC1CCCCN1CC(=O)Nc1ccc2c(c1)OCCO2 (centres undefined)	i	-1.1	-0.8	6	6	-1.5	2	0.69	-0.4	.
Clc1ccc(CSc2nnc(-c3sccc3-n3cccc3)o2)cc1	.	1.3	.	.	.	.	-3	0.71	0.1	24
O=C(Cc1ccccc1)NC(C(=O)O)C(O)c1ccc([N+](=O)[O-])cc1 (centres undefined)	i	6.1	0.6	7	12	1.9	-3	0.66	0.0	-3
CC(CCc1ccc(O)cc1)NC1C2CC3CC(C2)CC1C3 (centres undefined)	.	4.5	.	.	.	.	3	0.7	-0.7	6
CN1CCN(CCNC(=O)c2ccc3nc(-c4ccc(F)cc4)c(-c4ccc(F)cc4)nc3c2)CC1	i	-324	21	-26	-54	6.7	2	0.63	-0.4	45
Cc1cc(C)cc(NS(=O)(=O)c2ccc(NC(=S)NC(=O)c3cccs3)cc2)c1	.	4.7	.	.	.	.	4	0.72	-0.9	-2
COc1ccc(C(=O)NC(=S)NNC(=O)c2ccco2)cc1	i	8.6	8.0	-45	-41	-7.6	4	0.64	-0.5	-19
Cc1ccc(Nc2nc(CSc3nnc(-c4cccnc4)n3-c3ccccc3F)cs2)cc1	i	2.1	0.3	0	-1	1.4	-4	0.71	-0.6	14
COc1cccc(/C=N/NC(=O)c2cc(-c3cccn3C)n[nH]2)c1	.	.	.	-24*	0.0*	-1.8*	21	.	0.1	-11

Compound activity (PubChem)
